NOMO-1 viab = STK33 inhibitor candidate reducing NOMO-1 cell viability; NOMO-1 AML viability, CellTiter-Glo luminescence, 72 h; inhibition, % (test concentration not listed); 7.5% of 37,000 active; AID 2330;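 active = most replicates above 80%; inconclusive = exactly half above 80%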;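 also: wells of about 30 µL received 25 nL stock; 0% = median of vehicle wells and 100% = reference inhibitor level; the first replicate is given; inactives centre near 10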
* = called active by the depositor; ? = inconclusive. A portion of the library; rates above refer to the full screens.

Molecule | NOMO-1 viab
Cc1noc(C)c1NC(=O)N(C)C[C@@H]1OCCCC[C@@H](C)Oc2ccc(NS(=O)(=O)c3cccs3)cc2C(=O)N([C@H](C)CO)C[C@@H]1C | -6
COc1ccc(S(=O)(=O)N(C)C[C@H]2Oc3ccc(NC(=O)CCC(F)(F)F)cc3CC(=O)N([C@@H](C)CO)C[C@H]2C)cc1 | 11
COC(=O)c1cc2c(C)nn(-c3ccccc3)c2s1 | 9
COc1ccc(S(=O)(=O)Nc2ccc(O)c(Sc3ncn[nH]3)c2)cc1 | 5
Cc1ccc(S(=O)(=O)N(C)C[C@H]2Oc3ccc(N(C)C)cc3C(=O)N([C@H](C)CO)C[C@@H]2C)cc1 | 30
COc1ccc(-c2nc(SCC(=O)Nc3cccc(C(F)(F)F)c3)n[nH]2)cc1 | 9
CCc1cc2c3c(c(=O)oc2cc1OCc1cc(C(=O)O)oc1C)CCCC3 | 13
COc1ccc(OCC(=O)Nc2c(C(=O)c3ccc(C)c(F)c3)oc3ccccc23)cc1 | -10
CCn1c(SCC(=O)Nc2cccc(OC)c2)nnc1-c1ccncc1 | -5
Cc1ccc(-c2nc3cc(Cl)cc(Cl)c3o2)cc1NC(=O)COc1ccc([N+](=O)[O-])cc1 | -4
COc1ccccc1CNCc1ccc(OC)c(OC)c1OC | 25
Cc1noc(C)c1S(=O)(=O)N(C)C[C@H]1Oc2ccc(N(C)C)cc2CC(=O)N([C@@H](C)CO)C[C@@H]1C | 2
COc1cccc(-c2nnc(SCC(=O)Nc3cccc([N+](=O)[O-])c3)n2C)c1 | 17
C[C@H](CO)N1C[C@H](C)[C@H](CN(C)Cc2ccc(-c3ccccc3)cc2)Oc2ccc(NC(=O)Nc3ccc(F)cc3)cc2C1=O | 104*
CCCc1occc(=O)c1CC=O | 9

Reprinted at random: 6 records from the list.
Molecule | NOMO-1 viab
COc1ccc(S(=O)(=O)Nc2ccc(O)c(Sc3ncn[nH]3)c2)cc1 | 5
COc1ccc(-c2nc(SCC(=O)Nc3cccc(C(F)(F)F)c3)n[nH]2)cc1 | 9
CCCc1occc(=O)c1CC=O | 9
C[C@H](CO)N1C[C@H](C)[C@H](CN(C)Cc2ccc(-c3ccccc3)cc2)Oc2ccc(NC(=O)Nc3ccc(F)cc3)cc2C1=O | 104*
COc1cccc(-c2nnc(SCC(=O)Nc3cccc([N+](=O)[O-])c3)n2C)c1 | 17
Cc1noc(C)c1S(=O)(=O)N(C)C[C@H]1Oc2ccc(N(C)C)cc2CC(=O)N([C@@H](C)CO)C[C@@H]1C | 2

Following part:
Molecule | NOMO-1 viab
Nc1ncnc2c1c(I)cn2C1OC(CO)C(O)C1O (stereo unspecified) | 114*
c1ccc2[nH]c(SCCSc3nc4ccccc4[nH]3)nc2c1 | 83*
C[C@@H]1CN([C@@H](C)CO)C(=O)Cc2cc(NC(=O)C3CC3)ccc2O[C@@H]1CN(C)Cc1ccc(C(F)(F)F)cc1 | 33
Cn1c(SCC(=O)N2CCN(c3ccccc3)CC2)nnc1-c1cc2ccccc2o1 | 10
C[C@@H]1CN([C@@H](C)CO)C(=O)c2cccc(NC(=O)NC3CCCCC3)c2O[C@H]1CN(C)C(=O)Nc1ccc(F)cc1 | -2
C[C@H](CO)N1C[C@H](C)[C@H](CN(C)S(=O)(=O)c2cccs2)Oc2ccc(NC(=O)Nc3ccc4c(c3)OCO4)cc2CC1=O | 86*
O=C(CN1CCOCC1)Nc1ccc([N+](=O)[O-])cc1C(=O)Nc1ccccc1F | 26
O=C(CCSc1nc(-c2ccco2)cc(C(F)(F)F)n1)Nc1cccnc1 | 22
C[C@@H]1CN([C@@H](C)CO)C(=O)Cc2cc(NC(=O)NC3CCCCC3)ccc2O[C@@H]1CN(C)C(=O)NC1CCCCC1 | 10
COc1ccc(S(=O)(=O)N(C)C[C@H]2OCCCC[C@@H](C)Oc3ccc(NC(=O)NC(C)C)cc3C(=O)N([C@H](C)CO)C[C@@H]2C)cc1 | 8
COC(=O)CC1C(=O)NCCN1C(=S)Nc1cccc(OC)c1 (stereo unspecified) | 13
CCCN(C)C[C@@H]1OCCCC[C@@H](C)Oc2ccc(NS(=O)(=O)c3ccc(F)cc3)cc2C(=O)N([C@H](C)CO)C[C@@H]1C | 7
C[C@@H]1CN([C@H](C)CO)C(=O)c2cc(NC(=O)Nc3ccc(C(F)(F)F)cc3)ccc2O[C@@H]1CN(C)Cc1ccc(Oc2ccccc2)cc1 | ?
Cc1ccc(S(=O)(=O)N(C)C[C@@H]2OCCCC[C@@H](C)Oc3ccc(NC(=O)Nc4cccc5ccccc45)cc3C(=O)N([C@H](C)CO)C[C@@H]2C)cc1 | -1
COc1ccc(CN(C)C[C@H]2OCCCC[C@@H](C)Oc3ccc(NC(=O)Cc4ccccc4)cc3C(=O)N([C@H](C)CO)C[C@@H]2C)cc1 | 9
C[C@@H]1CN([C@H](C)CO)C(=O)c2cc(NS(C)(=O)=O)ccc2O[C@H]1CN(C)C(=O)Nc1ccc(F)cc1 | 31
O=C(CCn1cnc2ccccc2c1=O)Nc1cccc(Cl)c1 | 2
Cc1cc(C)nc(SC(C)C(=O)Nc2ccc(Cl)cc2)n1 (stereo unspecified) | -6
Cc1noc(C)c1NC(=O)N(C)C[C@H]1Oc2ccc(N(C)C)cc2CC(=O)N([C@@H](C)CO)C[C@@H]1C | -17
COc1cccc(C(=O)c2oc3ccccc3c2NC(=O)COc2ccccc2)c1 | -4
Cc1cccc(C(=O)Nc2cccc(OCC(=O)O)c2)c1 | 41
O=C(CCc1nc(-c2ccc(Cl)cc2)no1)N1CCOCC1 | 14
C[C@@H]1CN([C@H](C)CO)C(=O)c2cc(NC(=O)Cc3ccccc3)ccc2O[C@H]1CN(C)Cc1ccc(-c2ccccc2)cc1 | 117*
C[C@@H]1CN([C@H](C)CO)C(=O)c2cc(NC(=O)Nc3ccc(F)cc3)ccc2O[C@@H]1CN(C)Cc1ccc(C(=O)O)cc1 | 13
CCN(CC)CCNc1ncnc2c1sc1nc(N3CCCC3)c3c(c12)CC(C)(C)OC3 | 113*
Cc1ccc(S(=O)(=O)Nc2ccc3c(c2)C(=O)N([C@H](C)CO)C[C@H](C)[C@H](CN(C)C(=O)Nc2cccc4ccccc24)OCCCC[C@@H](C)O3)cc1 | 111*
Cc1noc(C)c1NC(=O)Nc1ccc2c(c1)CC(=O)N([C@@H](C)CO)C[C@H](C)[C@H](CN(C)C(=O)NC(C)C)O2 | -14
Nc1ncnc2c1ncn2CCN1CCOCC1 | -10
O=C(NCCCO)C(=O)NCC1COc2ccccc2O1 (stereo unspecified) | -12
C[C@@H]1CN([C@H](C)CO)C(=O)Cc2cc(NC(=O)Nc3ccc4c(c3)OCO4)ccc2O[C@H]1CN(C)S(=O)(=O)c1ccc(F)cc1 | 18

Two entries from above, as labelled records:
CCN(CC)CCNc1ncnc2c1sc1nc(N3CCCC3)c3c(c12)CC(C)(C)OC3
- NOMO-1 viab: 113*

C[C@@H]1CN([C@H](C)CO)C(=O)c2cc(NS(C)(=O)=O)ccc2O[C@H]1CN(C)C(=O)Nc1ccc(F)cc1
- NOMO-1 viab: 31

Going on with the list:
Molecule | NOMO-1 viab
COc1ccc(NC(=O)Nc2cccc3c2O[C@@H](CN(C)Cc2ccc(Cl)c(Cl)c2)[C@H](C)CN([C@H](C)CO)C3=O)cc1 | 102*
COc1ccc(-c2coc3cc(O)ccc3c2=O)c(OC)c1 | -2
O=C(CSc1nc2ccccc2nc1N1CCCC1)NCCc1ccc(Cl)cc1 | 57
COc1ccc2c(=O)ccoc2c1 | 14
CSCCC(Nc1ncnc2sc3c(c12)CCCC3)C(=O)O (stereo unspecified) | -5
Cc1noc(C)c1NC(=O)N(C)C[C@H]1Oc2ccc(NC(=O)Nc3cccc4ccccc34)cc2CC(=O)N([C@@H](C)CO)C[C@@H]1C | 14
C[C@H](CO)N1C[C@H](C)[C@H](CN(C)Cc2ccc(Cl)c(Cl)c2)Oc2ccc(NS(=O)(=O)c3ccc(Cl)cc3)cc2CC1=O | 102*
O=C(O)CSc1nc2cc(N3CCOCC3)c(F)cc2[nH]1 | 27
C[C@@H]1CCCCO[C@@H](CN(C)C(=O)Nc2ccc3c(c2)OCO3)[C@@H](C)CN([C@H](C)CO)C(=O)c2cc(NC(=O)Nc3ccc(F)cc3)ccc2O1 | 18
Cc1cc(=O)[nH]c(SCCCOc2ccccc2-c2ccccc2)n1 | 26
C[C@@H]1CN([C@H](C)CO)C(=O)Cc2cc(NC(=O)Nc3ccc(C(F)(F)F)cc3)ccc2O[C@@H]1CN(C)Cc1ccc(Oc2ccccc2)cc1 | 115*
CC(=O)c1ccc(NC(=O)CSc2nnc(N)n2-c2ccccc2)cc1 | -16
COc1ccc(NC(=O)Nc2cccc3c2O[C@H](CN(C)C(=O)Nc2ccc(F)cc2)[C@H](C)CN([C@H](C)CO)C3=O)cc1 | 28
Cc1noc(C)c1NC(=O)Nc1ccc2c(c1)CC(=O)N([C@H](C)CO)C[C@@H](C)[C@H](CN(C)S(=O)(=O)c1cn(C)cn1)O2 | 22
Cc1ccc(S(=O)(=O)N(C)C[C@@H]2OCCCC[C@@H](C)Oc3ccc(NS(C)(=O)=O)cc3C(=O)N([C@H](C)CO)C[C@@H]2C)cc1 | 14
Cc1cc(OCC(=O)Nc2cccc3ncccc23)cc(C)c1Cl | 25
O=C(COc1cccc(C(F)(F)F)c1)Nc1cccnc1 | -10
Cc1nn(C(C)C(=O)Nc2ccc(F)c(Cl)c2)c(C)c1[N+](=O)[O-] (stereo unspecified) | 17
C[C@H](CO)N1C[C@H](C)[C@@H](CN(C)Cc2ccc(Cl)c(Cl)c2)Oc2ccc(NC(=O)Nc3ccc(F)cc3)cc2C1=O | 53
CCc1ccc(C(=O)Oc2ccc(C#N)cc2)cc1 | 69
COC(=O)c1c(NC(=S)Nc2nc(C)cc(C)n2)sc2c1CCC2 | 35
COc1ccc(NC(=O)N(C)C[C@H]2Oc3c(NC(=O)C4CC4)cccc3C(=O)N([C@@H](C)CO)C[C@@H]2C)cc1 | -16
O=c1c(-c2ccc(O)cc2)coc2cc(O[C@@H]3O[C@H](CO)[C@@H](O)[C@H](O)[C@H]3O)cc(O)c12 | 96*
COc1ccc(NC(=O)Nc2cccc3c2O[C@H](CN(C)C(=O)Nc2cccc4ccccc24)[C@@H](C)CN([C@H](C)CO)C3=O)cc1 | 22
C[C@H]1CN([C@@H](C)CO)C(=O)c2cccc(NC(=O)C3CCCCC3)c2O[C@H]1CN(C)Cc1ccc(-c2ccccc2)cc1 | 87*
COC(=O)c1cc(NC(=O)CSc2nnc(-c3ccccc3O)n2-c2ccccc2)ccc1Cl | 0
C[C@H]1CN([C@@H](C)CO)C(=O)Cc2cc(N(C)C)ccc2O[C@@H]1CN(C)C(=O)Nc1ccc(C(F)(F)F)cc1 | -1
C[C@H]1CN([C@@H](C)CO)C(=O)c2cc(NC(=O)Cc3ccccc3)ccc2O[C@H]1CN(C)S(=O)(=O)c1cccs1 | 14
CNC[C@H]1Oc2c(NS(=O)(=O)c3cccs3)cccc2C(=O)N([C@@H](C)CO)C[C@@H]1C | 22
COc1ccc(C(O)CNC(=O)/C=C/c2ccccc2)cc1 (stereo unspecified) | 112*
CCOC(=O)C1=C(C)N(C(=O)Oc2ccccc2)C(SC)=NC1c1ccccc1 (stereo unspecified) | 72
C[C@H]1CN([C@@H](C)CO)C(=O)c2cccc(NC(=O)CCCCCC(=O)Nc3ccccc3N)c2O[C@H]1CN(C)S(=O)(=O)c1cccs1 | 57
C[C@@H]1CN([C@@H](C)CO)C(=O)c2cc(NC(=O)Nc3cccc4ccccc34)ccc2O[C@@H]1CN(C)C(=O)Nc1cccc2ccccc12 | 77
C[C@@H]1CN([C@H](C)CO)C(=O)c2cccc(NC(=O)c3cnccn3)c2O[C@H]1CN(C)S(=O)(=O)c1cn(C)cn1 | 6
C[C@@H]1CN([C@H](C)CO)C(=O)Cc2cc(NS(=O)(=O)c3cccs3)ccc2O[C@H]1CN(C)C(=O)Nc1ccc(F)cc1 | -2
C[C@H]1CN([C@@H](C)CO)C(=O)c2cccc(NC(=O)c3ccncc3)c2O[C@H]1CN(C)C(=O)Nc1ccc2c(c1)OCO2 | 6
C[C@H]1CN([C@@H](C)CO)C(=O)c2cccc(NC(=O)Nc3ccc(C(F)(F)F)cc3)c2O[C@@H]1CN(C)S(C)(=O)=O | 7
C[C@H]1CN([C@@H](C)CO)C(=O)c2cccc(NC(=O)NC3CCCCC3)c2O[C@@H]1CN(C)S(=O)(=O)c1cccs1 | 16
O=[N+]([O-])c1ccc2nc(CSc3ncnc4ccccc34)[nH]c2c1 | 20
CN=C1S/C(=C\c2cn(CC(=O)O)c3ccccc23)C(=O)N1C | 5
COc1ccc(-c2nc3ccccc3s2)cc1NC(=O)COc1cccc(C)c1 | 7
COc1ccc(S(=O)(=O)N(C)C[C@@H]2Oc3ccc(NC(=O)CCC(F)(F)F)cc3CC(=O)N([C@H](C)CO)C[C@@H]2C)cc1 | 21
COc1ccc(CN(C)C[C@@H]2Oc3ccc(NC(=O)Cc4cn(C)c5ccccc45)cc3C(=O)N([C@@H](C)CO)C[C@H]2C)cc1 | 8
COc1ccc(C(=O)Nc2ccc3nc(SCC(=O)Nc4ccccc4F)sc3c2)cc1OC | 17
COc1ccc(S(=O)(=O)N(C)C[C@@H]2Oc3ccc(NC(=O)Nc4c(C)noc4C)cc3CC(=O)N([C@H](C)CO)C[C@H]2C)cc1 | 22
Cc1noc(C)c1NC(=O)Nc1cccc2c1O[C@@H](CN(C)S(=O)(=O)c1cn(C)cn1)[C@@H](C)CN([C@@H](C)CO)C2=O | -2
C[C@H]1CN([C@@H](C)CO)C(=O)c2cccc(NC(=O)C3CCOCC3)c2O[C@@H]1CN(C)Cc1ccccc1 | 10
C[C@@H]1CN([C@H](C)CO)C(=O)c2cc(NC(=O)Nc3ccccc3)ccc2O[C@H]1CN(C)Cc1ccc(C(=O)O)cc1 | 5
C[C@@H]1CN([C@@H](C)CO)C(=O)c2cccc(NS(C)(=O)=O)c2O[C@H]1CN(C)CC1CCCCC1 | -11
